Source: PubChem BioAssay (several laboratories)
RanGTP-Impb inh: inhibitors of RanGTP-importin-beta interaction, primary screen, biochemical, FRET, CFP-Ran, YFP-importin-beta, homogeneous | cell-free CFP-Ran/YFP-importin-beta FRET ratio | inhibition, % (test concentration not listed) | hit rate 1.1% among 300,000 | AID 2216;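 active = most replicates above 15%; inconclusive = exactly half above 15%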;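 note: 0% = DMSO wells and 100% = Ran loaded with GDP instead of GTP; wells of about 40 µL received 100 nL stock; the first replicate is given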
FGF22 binding: shifts melting point of recombinant human FGF22; Q9HCT0; recombinant FGF22 thermal shift, SYPRO orange fluorescence; percent of sucrose octasulfate shift, DMSO zero; calls only at 9.99 µM; hit rate 1.5% among 340,000;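 active = melting point raised past a set limit in the mean and every replicate; inconclusive = no clear call; three in four hits are not shown here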
HNF4A DNA FP: change in binding of human HNF4 alpha to DNA; P41235; HNF4a-FITC DNA binding, fluorescence polarization, 1 h; activity change, % at 10 µM; hit rate 0.3% among 360,000; AID 1224865; in the data active = activity change above about 30%, passing the limit was not always enough;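 note: controls were the assay level and a saturating level of protein; the project sought stronger binding though the title names inhibitors; some compounds called inactive have numbers as strong as hits; positive values seem to mean higher polarization but the record does not say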
Target sequence (P41235 whole entry, looked up): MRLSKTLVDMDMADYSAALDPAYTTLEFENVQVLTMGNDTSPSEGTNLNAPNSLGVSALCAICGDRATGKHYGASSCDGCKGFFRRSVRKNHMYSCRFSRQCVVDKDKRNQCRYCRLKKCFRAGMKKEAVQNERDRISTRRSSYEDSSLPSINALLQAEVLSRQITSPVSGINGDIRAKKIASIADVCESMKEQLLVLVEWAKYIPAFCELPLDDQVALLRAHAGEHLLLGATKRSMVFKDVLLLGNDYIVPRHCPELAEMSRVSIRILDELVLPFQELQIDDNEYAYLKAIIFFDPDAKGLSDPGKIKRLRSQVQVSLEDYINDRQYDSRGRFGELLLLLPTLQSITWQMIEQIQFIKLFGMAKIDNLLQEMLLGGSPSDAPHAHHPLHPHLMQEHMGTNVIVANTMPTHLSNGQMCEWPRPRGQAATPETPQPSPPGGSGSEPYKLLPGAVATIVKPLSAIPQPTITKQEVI
Ecoli growth: inhibitors of Escherichia coli growth | OD600, 23 h; hits give low values | OD600 absorbance (concentration not given with the values) | hit rate 0.21% among 330,000 | AID 1053175;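 active = OD600 absorbance below the run mean of sample wells minus 3.6 SD, in any replicate, cut at about 0.56 in these data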;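 note: stock transfer was 300 nL into about 60 µL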
Vif A3G: inhibitors of Vif binding to APOBEC3G peptide, primary screen, biochemical, TR-FRET, GST-Vif 1-94, biotin-A3G peptide, dose response retest (AID 1117319) | TR-FRET GST-Vif / biotin-A3G peptide binding; higher % means a stronger effect; test concentration not given here; strong numbers were not always called active | inhibition, %; hits with a dose series show IC50 in µM | hit rate 0.57% among 260,000;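 active = above the screen mean plus three standard deviations and confirmed in dose response; inconclusive = results disagree or hit not tested in dose response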;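 note: Vif residues 1-94 fused to GST binding biotinylated APOBEC3G peptide 110-148; 0% = full assay without inhibitor and 100% = GST in place of GST-Vif; retest series ran down from 100 µM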
UCH37 DUB inh: inhibitors of human deubiquitinating enzyme UCH37; Q9Y5K5; purified proteasome/UCH37, Ub-AMC cleavage fluorescence; inhibition, % (no concentration beside the values); hit rate 0.33% among 330,000; AID 588478;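 active = mean of two replicates above 20%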;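 note: 0% = compound-free wells with enzyme and 100% = wells lacking proteasome; stock transfer was 100 nL into about 20 µL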
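Material: Human UCH37 enzyme supplied as purified proteasome complex | Schedule: 30 min compound-proteasome preincubation then 25 min substrate reaction, room temperature | Detection: AMC fluorescence from Ub-AMC cleavage, excitation 355 nm, emission 460 nm | Benchmarks: Wells without proteasome as full block, compound-free enzyme plus substrate as uninhibited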
MLL AF4-AF9 inh: blocks AF4 peptide binding to human AF9; AlphaScreen, biotin-AF4 peptide binding to FLAG-AF9; inhibition, % at 10 µM; hit rate 0.47% among 350,000; AID 651704;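 active = every replicate reaching a set inhibition limit, whatever the replicate mean, cut at about 25% in these data; inconclusive = mean inhibition reaches that limit but some replicates miss it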;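 note: 0% = plate neutral control median and 100% = total signal loss; the record names both 10 and 1 µM as test concentration; the first replicate is given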
Target sequence (P42568 whole entry, looked up): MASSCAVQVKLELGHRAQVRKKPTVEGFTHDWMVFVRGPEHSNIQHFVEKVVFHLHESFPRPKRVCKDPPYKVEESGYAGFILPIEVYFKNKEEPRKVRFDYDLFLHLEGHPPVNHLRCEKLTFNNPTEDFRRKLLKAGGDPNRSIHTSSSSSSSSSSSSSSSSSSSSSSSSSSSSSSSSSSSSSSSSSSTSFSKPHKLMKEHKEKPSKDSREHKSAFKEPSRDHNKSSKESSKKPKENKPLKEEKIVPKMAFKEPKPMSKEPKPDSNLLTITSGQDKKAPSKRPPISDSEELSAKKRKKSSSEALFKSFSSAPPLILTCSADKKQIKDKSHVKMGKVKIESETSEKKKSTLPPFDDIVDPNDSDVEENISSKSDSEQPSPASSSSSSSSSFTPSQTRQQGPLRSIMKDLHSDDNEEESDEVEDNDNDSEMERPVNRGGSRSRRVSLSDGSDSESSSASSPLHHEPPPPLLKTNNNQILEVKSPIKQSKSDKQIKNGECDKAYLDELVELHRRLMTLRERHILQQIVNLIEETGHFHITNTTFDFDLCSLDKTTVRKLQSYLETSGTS
Starred values were filed as active, the others as inactive; i = inactive; ? = inconclusive; · = not tested or not shown; & = joins results of further samples. The list is partial, so the mix of outcomes need not match the whole.

Vif A3G	MLL AF4-AF9 inh	RanGTP-Impb inh	HNF4A DNA FP	compound	Ecoli growth	FGF22 binding	UCH37 DUB inh
·	·	-2.6	1.7	CC(C)CSc1nc2c(=O)[nH][nH]c(=O)c2n1Cc1ccccc1	0.64	·	0.1
·	-7.3	-0.3	-0.2	O=C(NCc1ccccc1Cl)C1CCN(S(=O)(=O)c2ccc(-n3cnnn3)cc2)CC1	0.72	i	3.7
-1%	·	5.9	-1.6	O=C(CSc1nc(O)cc(=O)[nH]1)C1CC1	0.71	·	0.1
18%	·	33*	110	N#C/C(=C/c1ccc(N2CCCCCC2)o1)c1ccc(Cl)cc1	0.73	·	14
-6%	-1.2	4.3	0.1	CC(=O)Nc1ccc(CN2CCN(CC(C)C)C(CCO)C2)cc1 (stereo not given)	0.67	i	3.4
1%	4.9	-0.3	1.5	CCNc1nc(NCC)nc(Nn2cnnc2)n1	0.68	i	-0.6
0%	·	3.6	2.8	COC(=O)c1cc(C#N)c(Oc2ccc(F)cc2)nc1C	0.75	·	5.2
·	1.3	0.3	4.5	COc1cc(Cl)c(C)cc1Nc1ncccn1	0.66	i	0.2
1%	1.6	·	2.0	Clc1nc(Cl)c2ncn(-c3ccccc3)c2n1	0.68	i	1.1
2%	3.1	·	4.4	CCOc1ccc(C(C)=O)cc1COC(=O)CNC(=O)C12CC3CC(CC(C3)C1)C2	0.68	i	3.7

Vif A3G	MLL AF4-AF9 inh	RanGTP-Impb inh	HNF4A DNA FP	compound	Ecoli growth	FGF22 binding	UCH37 DUB inh
2%	6.2	1.6	3.9	COc1ccccc1Nc1nc(NCc2ccco2)c2ccccc2n1	0.59	i	-91
·	1.8	8.6	0.1	COc1ccc(C2/C(=C(/O)c3ccc(C)cc3)C(=O)C(=O)N2C)c(OC)c1 (stereo not given)	0.64	i	13
1%	1.3	6.0	-1.0	CCCCCC(=O)Nc1cc(S(=O)(=O)N2CCCCC2)ccc1N1CCOCC1	0.69	i	3.0
8%	·	-1.4	-3.1	Cn1c(=O)c2c(nc(NCc3ccco3)n2C)n(C)c1=O	0.68	·	0.6
7%	0.6	0.5	3.5	CCN(CC)S(=O)(=O)c1ccc(C(=O)Nc2ccc(Cc3ccncc3)cc2)cc1	0.62	i	1.0
·	-28	?	1.3	CCOc1ncccc1C(=O)NCCc1c[nH]c2ccccc12	0.63	i	4.7
·	4.7	-1.9	-1.6	O=C(c1cccc(OC2CCN(Cc3cccc(OCCO)c3)CC2)c1)N1CCCC1	0.67	i	6.2
2%	-1.5	5.4	13	CCOC(=O)c1sc2nc(CSc3ccccc3Cl)[nH]c(=O)c2c1C	0.72	i	-2.4
-7%	-12	-1.3	1.9	CCOC(=O)c1c(CN2CCN(C)CC2)n(-c2ccccc2)c2cc(Br)c(O)cc12	0.71	i	0.8
?	·	-0.5	-2.7	CC(NC(=O)c1cnc2n(c1=O)CCS2)c1ccccc1 (stereo not given)	0.74	·	1.8

Grouped by structure, those above with an aryl methoxy group (three)
Vif A3G	MLL AF4-AF9 inh	RanGTP-Impb inh	HNF4A DNA FP	compound	Ecoli growth	FGF22 binding	UCH37 DUB inh
·	1.3	0.3	4.5	COc1cc(Cl)c(C)cc1Nc1ncccn1	0.66	i	0.2
2%	6.2	1.6	3.9	COc1ccccc1Nc1nc(NCc2ccco2)c2ccccc2n1	0.59	i	-91
·	1.8	8.6	0.1	COc1ccc(C2/C(=C(/O)c3ccc(C)cc3)C(=O)C(=O)N2C)c(OC)c1 (stereo not given)	0.64	i	13

(continued)
Vif A3G	MLL AF4-AF9 inh	RanGTP-Impb inh	HNF4A DNA FP	compound	Ecoli growth	FGF22 binding	UCH37 DUB inh
2%	3.3	0.0	1.9	CCN(CC)C(=O)c1nn(-c2ccccc2)c2c1C1CCC2(C)C1(C)C (stereo not given)	0.69	i	3.2
·	-2.7	5.0	-1.9	O=C(NCCCN1CCOCC1)c1ccc(Cl)cc1[N+](=O)[O-]	0.7	·	1.8
-4%	-3.2	·	0.1	CCOc1ccc(-c2ccc(SCC(=O)Nc3nnc(CC)s3)nn2)cc1	0.7	i	5.6
·	-1.1	1.3	-2.4	COc1ccc(N2CCN(C(=O)COC(=O)/C=C/c3ccc(OC(F)F)cc3)CC2)cc1	·	i	·
·	-0.3	0.0	-1.1	CCCCOc1ccc(C(=O)CCN2CCOCC2)cc1	0.66	i	-0.5
10%	-1.8	5.1	-0.4	CC(C)Cn1c(N)c(C=O)c(=O)[nH]c1=O	·	i	·
-2%	-1.4	-4.7	-1.7	Cc1noc(C)c1COc1cccc(C(=O)Nc2ccccc2N2CCOCC2)c1	0.68	i	2.9
·	13	-1.0	1.8	O=C(CSc1n[nH]c(-c2ccncc2)n1)Nc1ccc(Cl)c(C(=O)O)c1	0.69	i	3.3
·	2.3	-1.5	-2.3	COc1ccc(C(N)=S)c(OC)c1	0.69	i	1.5
·	·	1.6	-0.3	Oc1cccc2ccc[n+](CC(O)Cn3c4ccccc4c4ccccc43)c12 (stereo not given)	0.7	·	9.8

Vif A3G	MLL AF4-AF9 inh	RanGTP-Impb inh	HNF4A DNA FP	compound	Ecoli growth	FGF22 binding	UCH37 DUB inh
-6%	-4.7	1.7	-4.0	O=C(OCC(=O)N1CCCC1)c1cccc(Br)c1	0.69	i	0.9
2%	·	-0.7	-3.0	Cc1cc(NC(=O)C(C)C)ncc1NC(=O)CCc1ccccc1	0.66	·	1.4
7%	·	3.9	2.2	C=CCC1(C#N)C(SC)=NC2=C(C(=O)CC(C)(C)C2)C1c1ccc(Br)cc1 (stereo not given)	0.76	·	4.2
0%	-5.8	?	2.9	COc1ccc(C(=O)C2CCN(CC(=O)Nc3ccccc3F)CC2)cc1	0.64	i	0.2
·	-0.5	1.9	2.8	COc1ccc(Cc2nnc(NS(=O)(=O)c3ccc(Cl)cc3)s2)cc1OC	0.64	i	4.1
·	-1.4	13	-7.1	COc1ccc(CCNC(=O)c2cc3c(=O)n4ccccc4nc3n(Cc3ccco3)c2=N)cc1OC	0.72	i	2.3
3%	·	-2.2	4.6	CCOc1ccc(-n2nc(C(=O)N3CCN(CC)CC3)c3ccccc3c2=O)cc1	0.7	·	2.8
·	·	0.7	16	COc1ccc(N2C(=O)/C(=C\c3ccco3)N=C2SCC(=O)N(C(C)C)C(C)C)cc1Cl	0.71	·	-2.7
-5%	2.9	0.8	-0.4	COC(=O)N/N=C\c1cccc(OC(=O)c2cccs2)c1	·	i	·
-1%	3.3	-0.5	0.9	C=CCNC(=S)N/N=C/c1ccc(C)cc1C	·	i	·

Vif A3G	MLL AF4-AF9 inh	RanGTP-Impb inh	HNF4A DNA FP	compound	Ecoli growth	FGF22 binding	UCH37 DUB inh
13%	·	-6.6	3.1	COc1cccc(C(NC(=O)c2ccccc2F)NC(=O)c2ccccc2F)c1	0.75	·	1.8
·	2.7	0.1	-0.5	CC(CC(=O)NCCc1ccc(F)cc1)c1ccccc1 (stereo not given)	0.67	i	4.4
·	1.4	-7.1	0.6	CCc1ccc(NC(=O)Cn2nc(C(=O)O)c3ccccc3c2=O)cc1	0.66	i	3.4
2%	0.5	0.4	3.1	Cc1c(Cl)cccc1NC(=O)[C@@]1(CC(=O)O)CC(/C=C/c2ccccc2)=NO1	0.69	i	4.6
-2%	2.7	0.0	2.1	Cc1cc2nnc(SCC(=O)N3CCCCCC3)n2c(N)n1	0.69	i	1.2
0%	2.4	3.3	4.0	O=C1CSC(c2ccccc2)N1CCc1ccccc1 (stereo not given)	0.69	i	0.7
-5%	-2.3	·	0.9	CC1CC2(C)C(=CC1=O)CCC1C2C(O)CC2(C)C1CCC2(O)C(=O)CO (stereo not given)	0.66	i	5.3
·	·	0.1	3.0	COc1cc(C)c(NC(=S)Nc2cccc(Cl)c2)cc1OC	0.71	·	4.1
27%	1.5	-2.3	4.2	CCOC(=O)c1sc(S(C)=O)c2c1CCc1conc1-2 (stereo not given)	0.66	i	1.0
·	2.3	·	-4.5	O=C1Nc2ccccc2N=C(c2ccccc2)C1N(C(=O)c1ccnc2ccccc12)c1ccccc1 (stereo not given)	·	i	·

Vif A3G	MLL AF4-AF9 inh	RanGTP-Impb inh	HNF4A DNA FP	compound	Ecoli growth	FGF22 binding	UCH37 DUB inh
-3%	-3.6	·	-0.2	ON(CCc1ccccn1)Cc1ccccc1	0.7	i	-2.8
3%	11	0.2	0.3	CCOC(=O)C1(CCc2ccccc2)CCN(Cc2cc(OC)c(OC)cc2OC)CC1	0.6	i	-0.9
17%&-6%	·	7.9	-1.7	COc1ccc(NC(=O)CSc2nnc(Cc3cccn3C)n2CCc2ccccc2)cc1OC	0.62	·	1.7
·	-2.8	-2.8	0.5	CCOC(=O)CCNC(=O)N1CCCC(C(=O)c2cc(C)c(OC)c(C)c2)C1 (stereo not given)	0.67	i	0.5
-12%	-19	3.9	-4.3	COc1cccc(C=Nc2ccccc2C(=O)Nc2ccccc2)c1O	0.67	i	-202
-1%	·	-2.4	-2.9	CCOc1ccc(CN2CCC(=O)NC2=O)cc1	0.68	·	1.1
·	9.5	·	-0.1	CN(C)c1cccc(NC(=O)C2Cc3c(-c4ccc(Cl)cc4)ccnc3O2)c1 (stereo not given)	·	i	·
-7%	·	2.3	·	CCn1cc(C(=O)Nc2cc(C)ccc2C)c(=O)c2ccc(C)nc21	0.66	·	3.0
·	0.0	·	-0.4	Cc1cccc(NC(=O)CNC(=O)C(NC(=O)Cc2ccccc2)C(C)C)c1C (stereo not given)	0.68	i	0.6
·	1.0	1.1	-4.6	CCOC(=O)Cn1c(O)c(N=NC(=O)CNC(=O)Cc2ccccc2)c2ccccc21	0.65	i	9.2

Vif A3G	MLL AF4-AF9 inh	RanGTP-Impb inh	HNF4A DNA FP	compound	Ecoli growth	FGF22 binding	UCH37 DUB inh
·	1.4	·	-0.9	O=Cc1c[nH]c2ccc(OCc3ccccc3)cc12	0.71	i	-0.6
14%	·	-0.4	0.2	O=c1c(N2CCOCC2)nsnc1N1CCOCC1	0.69	·	5.6
1%	·	-2.9	-0.7	CCNC(=O)c1ccccc1-c1nc(-c2ccccc2Cl)no1	0.74	·	0.5
2%	-20	4.3	4.8	CN(CCNC(=O)c1cn(C)c2ccc(S(=O)(=O)N3CCCC3)cc2c1=O)CCc1ccccc1	0.71	i	3.4
·	4.0	5.5	4.7	O=C(CNC(=O)c1ccco1)N/N=C/c1cc(Br)ccc1O	·	i	·
18%	4.8	-0.8	-3.3	Cc1nc([N+](=O)[O-])c(Sc2nc3ccc([N+](=O)[O-])cc3[nH]2)n1Cc1ccccc1	0.67	i	11
·	·	0.7	3.4	CCCC1=C(C(=O)OCC)C(c2sccc2C)n2ncnc2N1 (stereo not given)	0.63	i	1.4
·	-0.7	-3.5	-1.0	CCN(CC(=O)Nc1cccc(OC)c1)C(=O)c1ccncc1	0.69	i	0.3
·	2.0	·	-3.4	CC1(C)Cc2cccc(OC(=O)NC3CCCCC3)c2O1	·	i	·
-4%	-4.0	-4.3	0.2	Cc1nnc(SCC(=O)Nc2ccccc2)c2ccccc12	0.63	i	11
